High-throughput results deposited in PubChem BioAssay by National Center for Advancing Translational Sciences (NCATS).
N370S GC – inhibits or activates N370S mutant glucocerebrosidase; N370S GC spleen homogenate, 4MU-glucoside fluorescence; Potency, µM (highest dose often 59.4 µM), for the others: at the top dose activity change, negative = inhibition, usual class: inhibitors; 0.092% of 330,000 active;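 further: 0% = full enzyme activity and -100% = no enzyme basal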
GCN5L2 inh – blocks human GCN5L2 histone acetyltransferase. 0.21% of 390,000 active. AID 504327. GCN5L2 HAT assay, ThioGlo1 CoA-SH fluorescence. Potency, µM (series often up to 58.9 µM), for inactives: at the highest dose activity change, negative = inhibition, usual class: inhibitors. Q92830
Target sequence (Q92830 whole entry, looked up): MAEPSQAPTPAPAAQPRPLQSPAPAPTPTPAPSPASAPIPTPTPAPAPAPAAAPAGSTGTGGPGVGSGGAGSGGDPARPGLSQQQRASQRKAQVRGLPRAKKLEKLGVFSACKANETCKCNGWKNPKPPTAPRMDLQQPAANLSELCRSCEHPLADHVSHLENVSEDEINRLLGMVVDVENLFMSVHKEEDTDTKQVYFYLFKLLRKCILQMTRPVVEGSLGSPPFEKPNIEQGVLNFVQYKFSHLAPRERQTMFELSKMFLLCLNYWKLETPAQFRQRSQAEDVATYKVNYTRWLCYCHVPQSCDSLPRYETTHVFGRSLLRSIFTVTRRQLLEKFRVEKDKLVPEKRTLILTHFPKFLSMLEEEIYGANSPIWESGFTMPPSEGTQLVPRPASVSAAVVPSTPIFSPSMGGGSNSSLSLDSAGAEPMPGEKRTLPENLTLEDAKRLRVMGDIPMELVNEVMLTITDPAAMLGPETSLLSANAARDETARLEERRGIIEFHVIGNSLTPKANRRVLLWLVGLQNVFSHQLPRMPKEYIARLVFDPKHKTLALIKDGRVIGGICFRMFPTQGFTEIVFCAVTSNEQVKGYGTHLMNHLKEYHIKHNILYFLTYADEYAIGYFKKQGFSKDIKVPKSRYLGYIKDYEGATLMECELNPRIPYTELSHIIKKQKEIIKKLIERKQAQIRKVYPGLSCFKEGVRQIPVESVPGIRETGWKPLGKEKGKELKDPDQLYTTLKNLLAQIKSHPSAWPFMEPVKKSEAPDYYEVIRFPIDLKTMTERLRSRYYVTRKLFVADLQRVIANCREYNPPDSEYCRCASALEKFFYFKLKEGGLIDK
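ThioGlo1-coupled HAT assay: 20nM GCN5L2, 70uM acetyl-CoA, 75uM H3(1-25) peptide, pH 7.5. Fluorescence read at 340/540nm at start and after 20 min at room temperature.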
* hit, by the source's call; u = inconclusive; x = not tested or not shown; & = joins results of further samples; [ ] = remark or other dose. The call rests on the fitted dose curve; in most records, active means well fitted curve in the direction sought with a large enough effect; inconclusive means small, poorly fitted or top-dose-only effect, or another doubt; inactive means no such curve, though single readings can be large; an effect the other way counts as inactive or inconclusive. Unless noted, on the % scale 0 is the no-effect control and ±100 the full control effect; potency means the concentration at half of the fitted maximal effect. A portion of the library; most or all hits stand in other tables.

SMILES	N370S GC	GCN5L2 inh
CCOc1ccc(C(=O)Nc2cccc(-c3nc4ccccc4[nH]3)c2C)cc1[N+](=O)[O-]	8%	1%
Cc1onc(-c2c(F)cccc2Cl)c1C(=O)NCCCN1CCOCC1	4%	-2%
CC1CN(C(=O)c2ccc(NS(=O)(=O)c3ccc(F)c(F)c3)cc2)CC(C)O1 (stereo not given)	-8%	-2%
Cc1ccc(C(=O)c2sc3c(c2N)c(=O)[nH]c(=O)n3CCc2ccccc2)cc1	u	-2%
CC(C)COC(=S)Nc1ccccc1	2%	-1%
CCCCN(CC)CCNC(=O)c1cn(C)c(=O)c2c1c1ccccc1n2C	2%	-22%&-2%
CCc1ccc(-c2nc(CS(=O)CC(=O)O)c(C)o2)cc1 (stereo not given)	0%	0%
CC(C)NC(=O)c1ccc(COc2cc(Cl)ccc2Cl)o1	-3%	2%
COCc1c(C(=O)OC/C(O)=C(\C#N)c2nc3ccccc3[nH]2)oc2ccccc12	0%	-2%
CC(C)c1nnc(NC(=O)CCCC(=O)O)s1	7%	-1%
COc1cccc(NC(=O)CN(C)C(=O)C2CC3C=CC2C3)c1 (stereo not given)	x	-7%
NC(=O)c1c(NC(=O)c2ccccc2)sc2c1CCc1ccccc1-2	-6%	-2%
Cc1ncc([N+](=O)[O-])n1CC(=O)Nc1ccc(Cl)cc1	-1%	-5%
Cc1ccc(NC(=Nc2ccc(Br)cc2)N2CCOCC2)cc1C	-15%	-2%
COc1ccc(/C=C(\NC(=O)c2ccccc2)C(=O)N/N=C/c2cccnc2)cc1	4%	0%
O=C(NCC1CCCN(Cc2cccc(C(F)(F)F)c2)C1)c1ccc(F)cc1 (stereo not given)	9%	-2%
Cc1ccccc1C(=O)NC(NC(=S)Nc1ccc(S(N)(=O)=O)cc1)C(Cl)(Cl)Cl (stereo not given)	-10%	-4%
COCCNc1oc(-c2ccccc2Cl)nc1S(=O)(=O)c1ccc(C)cc1	x	-2%
Cc1ccc(N(CC(=O)NCc2ccccc2)C(=O)CCC(=O)Nc2ccccn2)cc1	-4%	-7%
COc1ccc(Cc2nnc(NS(=O)(=O)c3ccc([N+](=O)[O-])cc3)s2)cc1	2%	-8%
COC(=O)CSc1ncnc2c1cnn2Cc1ccccc1	2%	1%
O=C(Nc1ccc2c(c1)OCO2)Nc1ccc2c(c1)OCO2	1%	1%
Cc1nc(N)ncc1-c1ccc2c(c1)OCO2	1%	u
COc1cccc(NC(=O)C2CCC2)c1	-8%	-6%
CCC(=O)Nc1ccccc1N1CCN(S(C)(=O)=O)CC1	-3%	-17%

The list continues:
SMILES	N370S GC	GCN5L2 inh
CCOc1ccc(-c2c(C(=O)N/N=C(\C)c3ccccc3OC)nnn2-c2nonc2N)cc1	-12%	-2%
CC(C)C1CC(c2ccccc2)(C(CN)CO)CCO1 (stereo not given)	0%	-3%
O=C(C1=C[C@@H](C2CCCCC2)C[C@@H](OCc2ccc(CO)cc2)O1)N1CCN(Cc2ccc3c(c2)OCO3)CC1	u	0%
CCOC(=O)c1c(NC2=NS(=O)(=O)c3ccccc32)sc2c1CCC(C)C2 (stereo not given)	5%	-8%
CC(C)Oc1ccc2ccccc2c1C=O	0%	-1%
CN1CCN(c2ccc(S(=O)(=O)N3CCCCC3)cc2[N+](=O)[O-])CC1	-6%	-1%
COc1ccc(N2CCN(S(=O)(=O)c3c(C)n(C)c(=O)n(C)c3=O)CC2)cc1	-9%	-8%
CC1CCCN(C(=O)CSc2n[nH]c(-c3cccs3)n2)C1 (stereo not given)	-4%	1%
O=C(Nc1cccc(S(=O)(=O)N2CCCCC2)c1)c1c2c(nc3ccccc13)CCN(Cc1ccccc1)C2	-17%	-6%
CCn1c(COc2ccc(Cl)cc2)nnc1SCC(=O)Nc1ccc2c(c1)OCO2	1%	5%
COCCCNC(=O)CN(c1ccc(F)cc1)S(=O)(=O)c1ccc2c(c1)OCCO2	-3%	-5%
COc1cc(OC)cc(N2C(=O)CSC23C(=O)Nc2ccccc23)c1 (stereo not given)	x	-3%
COc1ccc(OCC(=O)N2CCN(C(=O)c3ccccc3)CC2)cc1	6%	-26%
CN(C(=O)COC(=O)c1ccc(Cl)s1)C1(C#N)CCCCC1	-9%	-5%
COc1ccc(-c2nsc3c(N4CCCCC4)ncnc23)cc1	4%	-2%
Cc1ccc(CN(C(=O)COc2ccc([N+](=O)[O-])cc2)c2ccccn2)cc1	x	-17%
COC(=O)C1=C(Nc2ccc(OC)cc2)C=C(C)C(C(=O)OC)C1c1ccc(C)cc1 (stereo not given)	-12%	-20%
O=C(CN1C(=O)NC2(CCCCC2)C1=O)Nc1nc2c(F)cc(F)cc2s1	-1%	-9%
CCOC(=O)c1ccc(N2C(=O)c3n[nH]c(-c4ccco4)c3C2c2ccc(O)cc2)cc1 (stereo not given)	x	-8%
CC1CCc2[nH]c3ccc(C(=O)N(C)CC(=O)Nc4cccc(F)c4)cc3c2C1 (stereo not given)	-4%	-6%
S=C(NCCCc1ccccc1)NCc1ccccc1	1%	-6%
O=C(/C=C/c1ccc(Cl)c(Cl)c1)NCCCn1ccnc1	-28%	-2%
Cc1ccc(NC(=O)c2ccc3[nH]c(=O)c(=O)[nH]c3c2)nc1	4%	-18%
CC(=O)c1ccc(NC(=O)C(Cc2ccccc2)NC(=O)c2ccco2)cc1 (stereo not given)	3%	-16%
COc1ccc(CCN2CC(C(=O)NCc3c(C)n[nH]c3C)CCC2=O)cc1 (stereo not given)	-5%	-7%

One compound at a time (already shown):
`CN1CCN(c2ccc(S(=O)(=O)N3CCCCC3)cc2[N+](=O)[O-])CC1` is listed as N370S GC: -6%; GCN5L2 inh: -1%
`CC(C)Oc1ccc2ccccc2c1C=O` is listed as N370S GC: 0%; GCN5L2 inh: -1%
`COc1cc(OC)cc(N2C(=O)CSC23C(=O)Nc2ccccc23)c1` (stereo not given) is listed as N370S GC: x; GCN5L2 inh: -3%

Continued.
SMILES	N370S GC	GCN5L2 inh
CCc1cccc(C)c1NC(=O)CNCc1ccccc1	13%	-6%
O=C(CCn1cnc2ccccc21)N/N=C/c1ccc(O)cc1	9%	-9%
CCOC(=O)N1CCN(C(=O)/C=C/c2ccc(C(C)(C)C)cc2)CC1	3%	u
COc1ccccc1NC(=O)C(C)OC(=O)CCSc1ccc(F)cc1 (stereo not given)	-3%	1%
CC1CCN(C(=S)c2ccc(N(C)C)cc2)CC1	26%	-21%
O=C(COC(=O)C12CC3CC(CC(O)(C3)C1)C2)NC12CC3CC(CC(C3)C1)C2	17%	-15%
Cc1cccc(N2C(=O)CSC23C(=O)N(Cc2cccc(F)c2)c2ccccc23)c1 (stereo not given)	x	-9%
O=c1c(-c2ccc(Cl)cc2)[n+]([O-])c2ccccc2n1OCc1nc2ccccc2[nH]1	-2%	-2%
CCc1cccc(OCC(=O)Nc2ccc(S(=O)(=O)Nc3ccccn3)cc2)c1	-4%	40%[activator]
CCOc1ccccc1NC(=O)CSc1nnc(CNC(=O)c2ccco2)o1	8%	-6%
CCOc1cc(C(=O)Nc2cc(OC)cc(OC)c2)ccc1OCC(=O)N1CCOCC1	x	-1%
Cc1ccc(CN2C(=O)c3ccccc3Sc3ccc(C(=O)N4CCOCC4)cc32)cc1	x	-5%
CC(C)(C)OC(=O)N1CCC(NC(=O)c2nc[nH]c2C(=O)NCC(=O)OCc2ccccc2)CC1	6%	u
CCOC(=O)c1ccc2c(c1)C(=O)N(C1CCCCC1)C2=O	5%	-1%
CC(C)(C)OC(=O)N1CCC(c2c(C(=O)N3CCN(C(=O)c4ccco4)CC3)cnn2-c2ccc(F)cc2)CC1	-2%	0%
CCOc1cc(C=O)ccc1OCc1cc(=O)n2cc(C)ccc2n1	7%	-8%
COc1ccc2c(c1)[n+](=O)c(C(C)=O)c(C)n2[O-]	-1%	-20%
COc1ccc(C(=O)CC(=O)C(=O)Nc2ccccc2C(F)(F)F)cc1	-23%	0%
Cn1cc(C(=O)N/N=C/c2cccs2)c2ccccc21	10%	-6%
O=C(N/N=C/c1coc2ccccc2c1=O)c1cn(-c2ccccc2)nc1-c1ccc(F)cc1	0%	-11%
O=C(Nc1nn[nH]n1)c1cccc([N+](=O)[O-])c1	0%	9%
O=C(OCN1C(=O)c2ccccc2C1=O)c1cc(S(=O)(=O)N2CCOCC2)ccc1F	-26%	2%
O=C(Nc1cccc(Cl)c1)c1ccc(F)c(S(=O)(=O)NCc2cccs2)c1	-4%	5%
CCOc1ncccc1C(=O)Nc1ccc(S(=O)(=O)N2CC(C)CC(C)C2)cc1 (stereo not given)	x	-2%
COc1ccc(Oc2coc3cc(OC(=O)/C=C/c4ccc(F)cc4)ccc3c2=O)cc1	1%	0%

Some of these compounds in order of their number in GCN5L2 inh, highest first:
SMILES	N370S GC	GCN5L2 inh
COc1ccc(Oc2coc3cc(OC(=O)/C=C/c4ccc(F)cc4)ccc3c2=O)cc1	1%	0%
CCOC(=O)c1ccc2c(c1)C(=O)N(C1CCCCC1)C2=O	5%	-1%
O=C(N/N=C/c1coc2ccccc2c1=O)c1cn(-c2ccccc2)nc1-c1ccc(F)cc1	0%	-11%

New compounds follow:
SMILES	N370S GC	GCN5L2 inh
N#CCCCSC1=C(C#N)C(c2ccccc2Cl)CC(=O)N1 (stereo not given)	-10%	-6%
O=C(COC(=O)c1cc(-c2cccc(Br)c2)nc2ccccc12)NCC1CCCO1 (stereo not given)	9%	-16%
Cc1ccc(-n2cc(C(=O)c3ccc(N4CCN(C)CC4)cc3)nn2)cc1Cl	-2%	-1%
CCCN(CCC)C(=S)NC1CC2C=CC1C2 (stereo not given)	8%	-5%
CCOc1cc(NC(=O)c2ccccn2)c(OCC)cc1NC(=O)c1ccccc1	-6%	-9%
N#C/C(=C\c1ccc[nH]1)C(=O)Nc1ccccc1F	-14%	-1%
OCC1(CC2CCCCO2)CCN(Cc2ccccc2-c2ccco2)CC1 (stereo not given)	-12%	-2%
COc1ccccc1CNC(=O)C(NC(=O)Nc1ccccc1)C(C)C (stereo not given)	-18%	3%
CCN(CC)S(=O)(=O)c1ccc(Cl)c(NC(=O)COC(=O)/C=C/c2ccc(O)c(OC)c2)c1	-11%	-5%
Cc1nc2sccn2c(=O)c1S(=O)(=O)Nc1ccc(N2CCN(C(=O)C(C)C)CC2)cc1	0%	-5%&-9%
CCc1ccc(OCC(=O)O/N=C(\N)c2ccncc2)cc1	-1%	-15%
COc1ccc(/C=N/NC(=O)c2cccc(Br)c2)cc1COc1ccccn1	1%	-13%
COc1cc(NC(=O)CN2CCN(c3ccccc3)CC2)c(C)cc1[N+](=O)[O-]	-13%	-8%
C[C@@H]1C[C@H]2[C@@H]3C[C@H](F)C4=CC(=O)C=C[C@]4(C)[C@@]3(F)[C@@H](O)C[C@]2(C)[C@@]1(O)C(=O)CO	-9%	-5%
C=CCOc1ccc(NC(=O)C(=O)NCCCn2ccnc2)cc1	-13%	u
CCCc1cc(C(=O)Nc2ccccc2SC)no1	6%	0%
O=C(Cn1nc(C(F)F)cc1C(F)F)NNC(=S)Nc1ccc(Cl)cc1	-15%	2%
Cn1c(=O)c([N+](=O)[O-])c(NCCc2ccccc2)c2ccccc21	u	1%
N=C1C(c2nc3ccccc3s2)=C(O)CN1NC(=O)c1ccc([N+](=O)[O-])cc1	10%	-3%
O=C(CCNC(=O)c1ccc(Cl)cc1)NC1CCCc2ccccc21 (stereo not given)	x	-2%
CCn1c(SCC(=O)Nc2c(C)n(C)n(-c3ccccc3)c2=O)nnc1-c1cccc(C)c1	4%	0%
O=C(NC1CCCN(Cc2ccc(Cl)cc2)C1)c1ccoc1 (stereo not given)	-4%	-2%
COCCCNCCCCOc1c(Cl)cc(C)cc1Br	-10%	-5%
O=C(Nc1ccc(N2CCOCC2)cc1)c1ccccc1SCC(=O)N1CCCC1	-10%	-7%
CC(=O)c1c(C)[nH]c(C(=O)COC(=O)c2ccc(C)s2)c1C	x	-5%

Remaining list, next part
SMILES	N370S GC	GCN5L2 inh
COc1ccccc1C(=O)NC(=O)COC(=O)c1oc2ccccc2c1C	x	-1%
CC(=O)C[C@@H](O)CC(=O)[C@@H]1OC(=O)[C@@H](C)CCCCc2ccccc21	x	0%
COc1ccccc1C(=O)Nc1cc(Cl)ccc1-n1cncn1	2%	0%
O=C(Cn1ncc2c3ccccc3n(Cc3ccccc3)c2c1=O)N1CCN(c2ccccn2)CC1	-20%	-3%
O=C(Nc1ccccc1C(=O)NCc1cccnc1)c1cccc([N+](=O)[O-])c1	6%	-5%
COCCCNC(=O)C1CCN(C(=O)c2cc3sccc3n2Cc2ccc(Cl)cc2)CC1	x	-6%
Cc1cccc(/C(N)=N/OC(=O)c2cccs2)c1	12%	-4%
CC(=O)Nc1ccc(N/C=C(\C#N)S(=O)(=O)c2ccc(Cl)cc2)cc1	-1%	u
Cc1ccccc1N(CC(=O)NC1CCCCC1)C(=O)CNC(=O)c1cccs1	u	-2%
CCC1CN(C(=O)N2CCC(C(=O)NCc3ccco3)CC2)c2cc(C)ccc2O1 (stereo not given)	4%	1%&-16%
O=C(O)c1cc(S(=O)(=O)NCCCN2CCCC2=O)ccc1Cl	x	-9%

A draw from above in order of heavy-atom count, descending:
SMILES	N370S GC	GCN5L2 inh
Cc1ccccc1N(CC(=O)NC1CCCCC1)C(=O)CNC(=O)c1cccs1	u	-2%
CC(=O)Nc1ccc(N/C=C(\C#N)S(=O)(=O)c2ccc(Cl)cc2)cc1	-1%	u
COc1ccccc1C(=O)Nc1cc(Cl)ccc1-n1cncn1	2%	0%
Cc1cccc(/C(N)=N/OC(=O)c2cccs2)c1	12%	-4%
